# Ab BasE inh = BasE siderophore enzyme inhibitors, primary screen, biochemical, Acinetobacter baumannii ATCC 17978, fluorescence polarization; AID 485350, 2010; purified BasE, fluorescence polarization binding displacement; inhibition, % (test concentration not listed); hit rate 0.1% among 84,000;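 active = both replicates above 25% with normal brightness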;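 note: 0% = negative plate control signal and 100% = positive plate control signal; stock transfer was 100 nL into about 30 µL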
# LANA-nucl inh = inhibitors of KSHV LANA-nucleosome binding, primary screen, biochemical, fluorescence polarization, FITC-LANA1-23, chicken nucleosomes | z-score (concentration not given with the values) | hit rate 0.3% among 51,000 | FITC-LANA1-23 / chicken nucleosome fluorescence polarization; stronger effect = lower value;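 active = both repeat wells score below -2 in polarization z-score versus plate sample wells, excluding overly bright wells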;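 note: 100 nL library stock added to about 30 µL; numbers are from one replicate; some results filed as inactive read as strong as hits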
#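 Assay system: FITC-LANA peptide and chicken nucleosomes; input: 240 nM purified chicken nucleosomes (480 nM peptide binding sites), final; also added: 50 nM FITC-LANA1-23 probe; medium: TEN-BT buffer, pH 7.5; doses: pin-transferred compound, 100 nL; times: 10–45 min, room temperature; technique: fluorescence polarization; replication: duplicates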
# * hit, by the source's call; · = not tested or not shown. These rows are one share of the data; count on the stated rates, not on these rows.
SMILES,Ab BasE inh,LANA-nucl inh
Cc1ccc2c(c1)sc1nc(=O)n(-c3ccccc3)c(=O)n12,3.6,-0.232
COC(=O)c1c(NC(=S)n2cc(C)cn2)sc2c1CCC(C)C2 (stereo not given),0.0,-0.518
Cc1cc(NC(=S)N(C)C)ccc1Br,1.1,-0.609
CN1CCN(C(=S)Nc2ccc(S(N)(=O)=O)cc2)CC1,0.8,0.059
COc1ccc(N2CCN(c3nc(N)c4c(N)nc5c(c4c3C#N)CC(=O)N5C)CC2)cc1,-0.3,·
C=CCc1ccc(OCCCn2ccnc2)c(OC)c1,-0.6,-1.11
CCOc1ccc2ccccc2c1C(=O)N[C@@H]1C(=O)N2[C@@H]1SC(C)(C)[C@@H]2C(=O)O,-0.5,-0.139
CCOC(=O)c1nn(-c2cccc(Cl)c2)cc(Sc2ccc(Cl)cc2)c1=O,1.9,·
CC(=O)Nc1ccc(S(=O)(=O)N2CCN=C2c2ccccc2)cc1,1.9,0.285
COc1ccc2ccccc2c1S(N)=O (stereo not given),·,0.147
N#C/C(=C\c1ccc(Cl)cc1)c1ccccc1,2.5,·
Cc1ccc(-n2c(C)cc(/C=C(\C#N)C(=O)NCC3CCCO3)c2C)cc1 (stereo not given),-1.5,-1.2
Cc1cccc(N2C(=O)C3C(C(=O)NC4CC4)C4C=CC3(O4)C2C(=O)NC2CCCC2)c1 (stereo not given),-0.1,-0.494
COC(=O)c1cc(COC(=O)c2cc(CN3C(=O)c4ccccc4C3=O)ccc2OC)oc1C,0.0,·
CSc1ccc(CN2C(=O)CCC2(C)C(=O)N2CCCC2)cc1 (stereo not given),-1.2,0.858
Cc1ccc(CNc2ncc(-c3ccc(C)cc3)n2C)cc1,-1.3,-1.61
c1ccc(N2CCN(CCNc3ncnc4nc[nH]c34)CC2)cc1,2.4,-0.929
CCCCNC1CCS(=O)(=O)C1 (stereo not given),1.5,·
O=C1N(CN2CCN(Cc3ccccc3)CC2)c2ccccc2C12OCCCO2,3.2,-0.461
CNC(=O)c1cc2c(=O)n3cc(C)ccc3nc2n(C(C)C)c1=N,0.3,-0.403
Cc1c(O)ccc(C(=O)COc2ccccc2)c1O,-2.7,·
CN(C)c1nn(C(=O)NC(C)(C)C)cc1-c1ccccc1,·,0.132
CCN1C(=O)S/C(=C\c2ccc3c(c2)OCO3)C1=O,-1.6,·
O=C(CSC1=NS(=O)(=O)c2ccccc2N1)N1CCCC1,-0.6,0.303
Cc1cc(C(=O)COn2nnc3ccc(Cl)cc32)c(C)n1-c1ccc2c(c1)OCCO2,0.5,·
CN(C(=O)COCc1cc(-c2ccco2)on1)c1ccccc1,-2.6,0.633
Cn1nnc2cc(C(=O)N3CCCCCC3)ccc21,0.7,-0.496
CCN(C(=O)c1cccc(S(=O)(=O)N2CCCC2)c1)c1nc2c(C)cccc2s1,-1.3,·
Cn1nccc1NC(=O)c1ccccc1,2.8,·
O=C(Nc1ccc(S(=O)(=O)Nc2ncccn2)cc1)c1ccc2c(c1)C(=O)N(Cc1ccncc1)C2=O,4.2,·
CN(C)CCCN1C(=O)C2CCc3[nH]c4ccccc4c3C2C1=O (stereo not given),4.0,0.194
O=c1cc(CN2CCC(Cc3ccccc3)CC2)c2ccc(O)cc2o1,2.1,·
CCN(CC)C(=O)C1CCCN1 (stereo not given),-0.2,·
CC(/C=C/c1ccc[n+](C)c1)=C\C(=O)O,2.0,0.201
FC(F)(F)c1ccnc(SCn2c(=S)sc3ccccc32)n1,1.2,·
N#CCC(=O)NC(=O)Nc1ccc(F)cc1F,-1.4,·
CCc1ccc(NC(=O)C(C)OC(=O)c2ccc3c(c2)OCO3)cc1 (stereo not given),2.6,·
Nc1ccccc1-c1nnn(CC(=O)Nc2ccccc2)n1,0.6,-0.351
Cn1c(=O)c2ccccc2n2c(COC(=O)C3(Cc4nc5ccccc5s4)CCCCC3)nnc12,-1.8,·
CCCc1cc(=O)[nH]c(SC)n1,0.3,·

# Gathered by group: those above with a COOH group.
SMILES,Ab BasE inh,LANA-nucl inh
CCOc1ccc2ccccc2c1C(=O)N[C@@H]1C(=O)N2[C@@H]1SC(C)(C)[C@@H]2C(=O)O,-0.5,-0.139
CC(/C=C/c1ccc[n+](C)c1)=C\C(=O)O,2.0,0.201

# Going on with the list:
SMILES,Ab BasE inh,LANA-nucl inh
O=C(NC1CCC(C(F)(F)F)OC1=O)c1ccccc1 (stereo not given),1.7,·
CSc1ncc2c(c1C#N)CCCC2,0.7,-0.188
CC(C)N=Cc1c(O)[nH]c2ccccc12,-1.0,·
COc1ccc2c(c1)CCc1c(C(=O)NCCc3ccccc3)noc1-2,0.7,-1.25
Cc1nc2c3ccccc3nc(NNC(=O)CCC(=O)N3CCC(C)CC3)n2n1,1.0,0.283
O=c1[nH]c(NCCO)nc2sc3c(c12)CCCC3,2.3,-0.591
O=C(O)CSc1cnc2ccccc2n1,0.5,·
O=c1ccc(-c2ccc(Br)s2)n[nH]1,2.5,0.143
O=C(CCSc1nnc2scc(-c3ccc(Cl)cc3)n12)NCCc1ccccc1,2.3,·
Cc1ccc(NC(=O)c2nc3ncccn3n2)cc1,-2.4,0.106
COc1cc(C(=O)NCC#N)cc(OC)c1OC,-0.8,-1.39
COc1cccc2cc(C(=O)Nc3ccc(S(=O)(=O)N4CCOCC4)cc3)c(=O)oc12,2.2,0.178
COc1ccc2oc(=O)c(-c3cc4c(c(C)n3)c(=O)oc3ccc(OC)cc34)cc2c1,2.7,0.086
Cc1nc2ccc(Br)cc2c(=O)n1-c1cc(C(F)(F)F)ccc1N1CCOCC1,0.3,·
CCCn1cnc2cc(NCc3ccc(Br)cc3)ccc21,-0.1,0.207
Cc1ccc(Cc2nc3c(nnn3Cn3nnc(-c4ccc(Cl)cc4)n3)c(=O)[nH]2)cc1,2.5,-0.272
Cn1c(COC(=O)c2sc3ccccc3c2Cl)nc2ccccc21,1.6,-0.871
CCC(C(=O)Nc1ccc(OC)cc1)n1sc2ccccc2c1=O (stereo not given),2.4,-0.854
O=C(O)c1cccnc1NC1CCCC1,0.7,-0.999
CCOc1ccccc1C(=O)OCC(=O)N1CCN(c2ccccc2)CC1,-1.1,·

# A different layout for part of the listing above:
# Results follow in this order: Ab BasE inh	LANA-nucl inh
> C=CCc1ccc(OCCCn2ccnc2)c(OC)c1
    -0.6	-1.11
> CSc1ncc2c(c1C#N)CCCC2
    0.7	-0.188

# Other structures follow:
SMILES,Ab BasE inh,LANA-nucl inh
CC(Cn1cnc2ccccc21)C(=O)N=Nc1c(O)[nH]c2ccccc12 (stereo not given),3.3,-0.643
COc1nc(NCCCC(C)C)nc(N2CCC(Cc3ccccc3)CC2)n1,5.2,0.324
Cc1nn(C)cc1S(=O)(=O)N1CCc2ccccc2C1,-2.1,-0.619
Oc1ccccc1C=Nc1ccc(OC(F)(F)C(F)F)cc1,1.1,0.182
CCOC(=O)c1ccc(NC(=O)C2CCN(Cc3cnn(-c4ccccc4)c3-n3cccc3)CC2)cc1,-3.1,0.0105
O=c1[nH]ncc(NCc2ccc(Cl)cc2)c1Cl,-3.1,-0.975
COc1ccccc1-n1c(=O)c2c3c(sc2n2c(=S)[nH]nc12)CCC3,2.8,·
Cc1cc(C)n(C(=O)c2cccc(Cl)c2)n1,4.5,-0.752
Cc1oc(-c2ccc(C(=O)N3CCCCC3)cc2)nc1COc1ccccc1,0.0,-0.967
CCOC(=O)N1CCN(c2nc(N)c(C#N)c(CC#N)c2C#N)CC1,-0.3,·

# Full records as entered above. Screens in order: Ab BasE inh, LANA-nucl inh
# `CCOC(=O)c1nn(-c2cccc(Cl)c2)cc(Sc2ccc(Cl)cc2)c1=O` across the screens: 1.9, ·
# `Cc1ccc(CNc2ncc(-c3ccc(C)cc3)n2C)cc1` across the screens: -1.3, -1.61
# `Cc1nc2ccc(Br)cc2c(=O)n1-c1cc(C(F)(F)F)ccc1N1CCOCC1` across the screens: 0.3, ·
# `COc1cc(C(=O)NCC#N)cc(OC)c1OC` across the screens: -0.8, -1.39
# `CC(=O)Nc1ccc(S(=O)(=O)N2CCN=C2c2ccccc2)cc1` across the screens: 1.9, 0.285

# Other results follow.
SMILES,Ab BasE inh,LANA-nucl inh
Clc1ccc2c(c1)CCN2,0.2,0.315
CCN(CC)C(=O)NCC12CC3CC(CC(C3)C1)C2,-0.7,-0.675
N/C(COc1ccc(-c2nnco2)cc1)=N\OC(=O)c1ccc(Cl)cc1,3.0,-0.604
Cc1cc(C)n2ncc(C(=O)N(C)Cc3ccccc3)c2n1,1.9,-0.859
O=C(NCCc1ccco1)c1ccc(Cn2c(SCc3ccccc3)nc3cccnc32)cc1,-2.8,-0.033
O=C1c2ccccc2C2=Nc3ccccc3SC(c3ccc(F)cc3)C12 (stereo not given),0.8,·
CCCC(=O)Nc1ccccc1NC(=O)CCC,-0.2,-0.894
COc1ccc(C2C3CCc4ccccc4C3=NN2C(=O)c2cccs2)cc1 (stereo not given),-1.9,·
CCCn1c(=O)c(C#N)nn(-c2ccc(OC)cc2)c1=O,-2.2,·
Cc1c(NC(=O)C(C)n2nc(C(=O)O)c3ccccc3c2=O)c(=O)n(-c2ccccc2)n1C (stereo not given),1.6,·
N#CCn1c(CN2CCCCC2C(N)=O)nc2scc(-c3ccccc3)c2c1=O (stereo not given),-0.1,·
CCOc1cc(C(=O)Nc2ccc3nc(N4CCN(CC)CC4)cc(C)c3c2)cc(OCC)c1OCC,-1.7,0.317
C=CCn1c(=O)c2ccccc2n2c(SCC(=O)N3CCc4ccccc43)nnc12,0.7,·
Cc1ccc(SCc2nccn2Cc2ccc(Cl)cc2)cc1,-0.2,·
CC(OC(=O)c1ccc(Br)o1)C(=O)NCC1CCCCC1 (stereo not given),1.9,·
COc1ccc(CCNC(=O)Cn2c(-n3nc(C)cc3C)nc(C)c(C)c2=O)cc1OC,-0.6,-0.662
O=C(CN(Cc1ccco1)C(=O)Cn1cnnn1)Nc1ccc(Cl)c(C(F)(F)F)c1,-0.7,·
O=C(Nc1ccccc1C(=O)NCCCO)c1ccccc1,1.3,-0.849
CCOc1ccnc2sc(C(=O)c3cccnc3)c(N)c12,1.9,-0.146
CC1Cn2c(C(=O)NCc3ccccc3)cc3cccc(c32)S1 (stereo not given),1.5,-0.273
COc1ccccc1-c1nnc(SCC(=O)Nc2cccc3nsnc23)n1-c1ccccc1,-5.3,·
CCOc1ccc(S(=O)(=O)N2CCCC(C(=O)N3CCN(CC)CC3)C2)cc1Cl (stereo not given),-2.5,-0.612
CCN(CC)S(=O)(=O)c1ccc(O)c(C(=O)OCC(=O)NC23CC4CC(CC(C4)C2)C3)c1,2.8,·
O=C(NC1=NCCS1)c1cc2ccccc2o1,1.0,·
CCCc1c(Cc2c(F)cccc2Cl)c(=O)oc2cc(O)ccc12,-0.1,·
Cc1cc(C)n2nc3nc(N4CCC(C)CC4)nc(-c4ccccc4)c3c2n1,1.4,-0.138
Cc1nc(NC(=O)C2CC3CCCC(C2)C3=O)sc1C (stereo not given),-0.4,0.213
CC1=C/C(=N/NC(=O)c2ccc(CSc3nncn3C)cc2)CC(C)(C)C1,0.0,·
O=C(Cn1cc(C(F)(F)F)ccc1=O)c1ccc[nH]1,5.0,·
Cc1[nH]ncc1CNC(=O)c1[nH]nc2c1CCc1ccccc1-2,-0.7,0.173

# As entered above:
# CCCc1c(Cc2c(F)cccc2Cl)c(=O)oc2cc(O)ccc12 @ Ab BasE inh = -0.1
# CC1=C/C(=N/NC(=O)c2ccc(CSc3nncn3C)cc2)CC(C)(C)C1 @ Ab BasE inh = 0.0
# Cc1[nH]ncc1CNC(=O)c1[nH]nc2c1CCc1ccccc1-2 @ LANA-nucl inh = 0.173

# Later entries
SMILES,Ab BasE inh,LANA-nucl inh
CCNS(=O)(=O)c1ccc2c3c(cccc13)C(=O)N2,0.7,·
CC1CN/C(=C/C(=O)/C=C/c2ccccc2)C(=O)N1 (stereo not given),3.5,·
CCNc1nc(NC(C)CC)nc(ON=C(C)C)n1 (stereo not given),-0.6,0.128
COc1ccc2nc(SCC(=O)O)[nH]c2c1,-0.3,-1.1
CC(NC(=O)COc1ccc(Cl)cc1)C(=O)O (stereo not given),1.2,-0.251
O=C(CN1CCC(NC(=O)c2ccccc2)CC1)Nc1ccccc1,0.6,0.415
COC(=O)c1c(NC(=O)C2SC(=NC3CCCCC3)C(C(N)=O)=C2N)sc2c1CCCC2 (stereo not given),2.4,·
COc1ccc(C2CCCCCN2C(=O)Cn2c(C)csc2=O)cc1 (stereo not given),-0.5,·
C=C1C2(C(=O)Nc3ccc(C(=O)OC)cc3)CCC(C2)C1(C)C (stereo not given),2.5,-1.47
CCCSCC(=O)Nc1ccc(C)cc1C,-2.3,1.3
O=C(Cn1cc(/C=C2\NC(=O)NC2=O)c2ccccc21)Nc1ccccc1,-1.2,0.958
COc1ccc(CN(C)C(=O)c2cccc(S(=O)(=O)N(C)C)c2)c(OC)c1,-1.1,·
CC(Sc1ncnc2c1oc1ccccc12)c1ccccc1 (stereo not given),-2.2,-0.19
Cn1c(=O)c(=O)[nH]c2cnccc21,3.7,-0.324
CC(C)c1cc(NC(=O)COC(=O)c2ccc3[nH]c4c(c3c2)CCCC4)on1,-3.1,·
COC(=O)c1nn(-c2ccc3c(c2)CCN3C(C)=O)cc1O,0.8,·
COc1ccc(NC(=O)C2C3C=CC(O3)C2C(=O)NCc2cccnc2)cc1 (stereo not given),-3.5,0.622
CS(=O)(=O)N1CCC(C(=O)NC2CCCCC2)CC1,-1.6,1.07
CC(C(N)=O)n1cncn1 (stereo not given),·,-1.03
O=C(O)C1CCN1C1CCCCC1 (stereo not given),0.2,-0.084

# Screens deposited in PubChem by ICCB-Longwood Screening Facility, Harvard Medical School.
